NPYLR7 agonist: activates Aedes aegypti NPYLR7 receptor. HEK293T NPYLR7/Galpha15, GCaMP6s calcium fluorescence. activation, % at 10 µM. 270,000 compounds, 0.15% hits; in the data active means activation above about 40%;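 further: 0% = vehicle and 100% = reference agonist at the receptor; some compounds past the cut are filed as inactive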
NPYLR7 agonist max-min: recorded beside NPYLR7 agonist, whose call it bears; activation, %; measured here: Max-Min RFU normalised activation; some inactives read as strong as hits;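 span of the calcium signal over five minutes; 0% = vehicle and 100% = native peptide agonist; compound fluorescence can raise it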
* hit, by the source's call; & = joins results of further samples. Only part of the results is shown (hit frequency here may not be typical).

SMILES	NPYLR7 agonist	NPYLR7 agonist max-min
O=S(=O)(NCc1ccccc1)Nc1ccccc1N1CCOCC1	0.7	1.5
O=C(NCc1ccccc1F)c1ccc(NC(=O)c2cccs2)cc1	2.3	1.9
CC1CCCCC1NC(=O)CSc1nnc(Cc2cccs2)n1C (stereo not drawn)	9.0	-1.3
C=C(C)Cn1c(=O)c2c(nc3n(-c4cc(OC)ccc4OC)c(C)cn23)n(C)c1=O	1.2	12.9
Cc1ccnc(N2C(=O)c3ccc(-c4nc5ccccc5c(=O)o4)cc3C2=O)c1	-1.6	-5.8
CC(OC(=O)CNC(=O)c1ccccc1)C(=O)Nc1cc(Cl)cc(Cl)c1 (stereo not drawn)	1.9	-0.9
COc1cc(C2NC(=O)NC3=C2C(=O)N(CCO)C3)cc(OC)c1OC (stereo not drawn)	4.5	4.5
COc1ccccc1C1C(C(=O)OC2CCCCC2)=C(C)NC2=C1C(=O)CC(c1ccc(Cl)cc1)C2 (stereo not drawn)	3.4	7.5
COc1ccc(-c2noc(CN3CCN(c4cnccn4)CC3)n2)cc1	-8.1	-9.0
COc1ccc(C(=O)N2CCN(Cc3ccsc3)CC2)cc1	1.0	-0.1
CN1CCc2ccc(S(=O)(=O)NCc3ccc(-n4cccn4)nc3)cc21	-2.5	84.8
Cc1ncsc1CNc1ccccc1OCC(F)F	1.7	1.2
CCN(CC)C(=O)C12CCC(C)(C(=O)C1)C2(C)C (stereo not drawn)	2.3	72.4
CCOC(=O)c1ccc2c(c1)nc(SCc1ccccc1SC(F)(F)F)n2CCOC	13.3	10.8
CC[C@H]1C[C@@H](NC(=O)c2ccccc2)C[C@@H](c2ccccc2OCC(N)=O)O1	-2.1	-11.6
c1ccc(-c2noc(C3CCCN3Cc3cccc4nccnc34)n2)cc1 (stereo not drawn)	1.1	1.1
CN(CCNC(=O)c1cnc(-c2ccccc2)nc1)S(C)(=O)=O	1.5	2.3
CC(C)(C)c1oc(C(N)=O)cc1CN1CCCCC1c1ccccn1 (stereo not drawn)	-1.6	-0.9
O=C(O)CCN1C(=O)C(=Cc2cccs2)SC1=S	3.3	0.1
CN(Cc1ccsc1)C(=O)NCCc1ccc(Cl)cc1	6.3	5.7
CCc1nnc(NC(=O)C(=O)NCCOC(=O)c2ccccc2Cl)s1	-7.4	-11.3
CC(C)CC1C(Cc2ccccc2)CCN1C(=O)CN1C(=O)C2CCCCN2C(=O)c2ccccc21 (stereo not drawn)	1.4	33.7
Cc1ccc(Cl)cc1-n1c(SCc2nc(C(=O)N3CCN(c4ccccc4F)CC3)cs2)nnc1-c1cccnc1	10.1	23.2
CCNC(=O)c1cc(Br)c(OCC)c(OC)c1	-7.8	-11.0
CCCN1CCC(=NNc2ccc(S(=O)(=O)Nc3ccccc3OC)cc2[N+](=O)[O-])CC1	-2.8	-7.6

Full records from above. Values in the order: NPYLR7 agonist, NPYLR7 agonist max-min
Entry for CC(C)CC1C(Cc2ccccc2)CCN1C(=O)CN1C(=O)C2CCCCN2C(=O)c2ccccc21 (stereo not drawn) : 1.4, 33.7
Entry for Cc1ccc(Cl)cc1-n1c(SCc2nc(C(=O)N3CCN(c4ccccc4F)CC3)cs2)nnc1-c1cccnc1 : 10.1, 23.2

Grouped by structure: those above containing fluorine (4)
SMILES	NPYLR7 agonist	NPYLR7 agonist max-min
O=C(NCc1ccccc1F)c1ccc(NC(=O)c2cccs2)cc1	2.3	1.9
Cc1ncsc1CNc1ccccc1OCC(F)F	1.7	1.2
CCOC(=O)c1ccc2c(c1)nc(SCc1ccccc1SC(F)(F)F)n2CCOC	13.3	10.8
Cc1ccc(Cl)cc1-n1c(SCc2nc(C(=O)N3CCN(c4ccccc4F)CC3)cs2)nnc1-c1cccnc1	10.1	23.2

(list continues)
SMILES	NPYLR7 agonist	NPYLR7 agonist max-min
O=C(NC(c1ccccc1)c1ccccn1)C1CCN(CCOc2ccc(Cl)cc2)CC1 (stereo not drawn)	9.0	1.0
N#CCN(C(=O)c1cccc(NS(=O)(=O)c2cc(Cl)ccc2Cl)c1)C1CC1	-2.0	105.7
COc1cc2c(cc1C1CC(=O)Nc3c1c(C(C)C)nn3C)CCC2 (stereo not drawn)	23.8	15.9
COc1cccc(C2c3[nH]c4ccccc4c3CCN2C(=O)CSc2ccncc2)c1 (stereo not drawn)	13.3	-2.7
CNC(=O)Cn1c(=O)n(-c2ccccc2)c(=O)c2oc3ccccc3c21	-2.1	-5.9
CC1CCC2(CC1)NC(=O)N(CC(=O)NC(C)C)C2=O (stereo not drawn)	3.0	3.3
O=C(NCC(=O)N1CCN(S(=O)(=O)c2ccc(F)c(Cl)c2)CC1)C1CCCCC1	3.6	1.7
O=C(NC(c1ccc2ccccc2n1)c1cccs1)C1CCN(CCc2ccccc2)CC1 (stereo not drawn)	-0.9	6.9
O=C(O)c1ccccc1-c1oc2cc(O)ccc2c(=O)c1Oc1ccccc1	1.0	0.5
Nc1cc(-c2ccc(Cl)cc2)nn1-c1ccc(C(=O)NCCc2ccccn2)cc1	-8.6	-18.9
CC(=O)Oc1ccc(Cn2cc(C(=O)NCc3ccc4c(c3)OCO4)sc2=O)cc1	2.5	-2.8
CC(C)NC(=O)C(C#N)C(=O)C1CC1c1cccc(Cl)c1 (stereo not drawn)	-1.4	-1.3
CC[C@H]1OC(=O)C[C@@H](O)[C@H](C)[C@@H](O[C@@H]2O[C@H](C)[C@@H](O[C@H]3C[C@@](C)(O)[C@@H](O)[C@H](C)O3)[C@H](N(C)C)[C@H]2O)[C@@H](CC=O)C[C@@H](C)C(=O)/C=C/C(C)=C/[C@@H]1CO[C@@H]1O[C@H](C)[C@@H](O)[C@@H](OC)[C@H]1OC	-3.9	-9.3
Cc1ccc(C)c(CC(=O)N2Cc3cnn(Cc4ccc(F)cc4)c3C2)c1	4.6	1.2
CCOc1ccc(N2CCn3c2nnc(C(=O)NCCC(C)C)c3=O)cc1	4.4	2.5
COc1ccc2nc3cc(OC)c(=O)c(Br)c-3sc2c1	-1.9	-3.1
CCOc1ccc(C2c3[nH]c4ccccc4c3CCN2C(=O)CSC)cc1 (stereo not drawn)	-4.9	-3.8
CCCCN(C)c1c(CC)nc2ccc(C(=O)N3CCN(C(C)=O)CC3)cn12	-2.4	-9.4
O=C(CN1C(=O)c2ccccc2C1=O)Nc1ccccc1C(=O)N1CCCC1	1.3	7.2
Cc1ccc(C(=O)Nc2ccc(N3CCCC3)nc2C)c(O)c1	-25.8	-25.6
CC(C)N1C(=O)C(=CC=Cc2ccc([N+](=O)[O-])cc2)SC1=S	-3.0	0.9
Cc1c(-c2ccccc2)sc2ncn(CC(=O)N3CCCCC3C)c(=O)c12 (stereo not drawn)	3.3	5.1
COc1ccc(N2C(=O)C(c3c(C(C)C)[nH]n(-c4ccc(Cl)cc4)c3=O)=C(N3CCC(C)CC3)C2=O)cc1	13.1	15.7
O=C(Cn1cnc2c(nnn2-c2cccc(Cl)c2)c1=O)c1ccc(Cl)cc1	7.4	8.7
Cc1cc(-c2nc(-c3ccc(S(C)(=O)=O)cc3)c(-c3ccc(F)cc3)[nH]2)oc1C	5.3	-1.5
Following part.
SMILES	NPYLR7 agonist	NPYLR7 agonist max-min
CCOc1ccc(NC(=O)C2CCN(C(=O)C(C)(C)C)CC2)cc1	7.6&16.4	5.5&8.4
O=C1CC(c2n[nH]c(=O)n2CCc2ccc(F)cc2)CN1Cc1ccccc1 (stereo not drawn)	17.3	16.2
Cc1nc(C)n(CC2CCCN2C(C)C(=O)NCC2CCCO2)n1 (stereo not drawn)	4.3	3.1
CCC(C)(C)c1ccc(OCCCCNC(=O)c2cc(-c3ccc(F)cc3)nn2-c2ccccc2Cl)c(C(C)(C)CC)c1	-5.8	2.3
O=C(c1cccs1)N(Cc1c(-c2ccc(F)cc2)noc1N1CCOCC1)CC1CC1	-1.8	15.2
O=S(=O)(NCCc1nnc2ccc(SCc3ccc(F)cc3)nn12)c1ccccc1	6.8	-3.8
C=CCNC(=O)C(NC(=O)c1ccc2c(c1)OCO2)C1CCN(C(=O)C2CC2)CC1 (stereo not drawn)	10.0	14.6
CCC(O)CN1CCN(C(=O)CCc2nccs2)CC1 (stereo not drawn)	8.2	3.1
Nc1c(-c2ccncc2)sc2nc(-c3cccnc3)ccc12	8.8	8.8
c1ccc(-c2ncn(CCc3cnc[nH]3)c2-c2ccc3c(c2)OCCO3)cc1	1.9	-0.1
CC(=O)Nc1ccc(N=Cc2nc(-c3ccc(C)cc3)oc2O)cc1	-1.9	-11.3
CC1CCCC(NC(=O)C(c2ccccc2)N(C)C)C1 (stereo not drawn)	2.2	3.2
Nc1cc(C2CC2)nn1-c1ccccc1	7.2	9.4
CCN(Cc1nccn1Cc1ccc(C(F)(F)F)cc1)C(=O)c1ccc(Cl)cc1	3.6	9.4
CC(C)=CC1C(C(=O)Nc2cc(C)nn2Cc2ccccn2)C1(C)C (stereo not drawn)	2.1	-1.3
CCc1ccc2oc(-c3cccc(NC(=O)c4ccc(OC)c(Br)c4)c3)nc2c1	-9.8	-10.7
O=C(CSc1ncn[nH]1)Nc1nccs1	0.3	-1.3
N#Cc1c(Cl)nsc1NCC1(c2ccccc2)CCC1	-3.3	-7.2
Cn1cnc([N+](=O)[O-])c1Sc1nc2ccccc2[nH]1	5.2	2.6
CN1CCN([C@H]2CN(C3CCN(C(=O)c4ccccc4)CC3)C[C@@H]2O)CC1	11.1	8.1
COc1ccccc1-c1nnc2ccc(OCCNC(=O)Nc3ccccc3)nn12	15.6	10.4
CC1CCN(C(=O)c2cc(N)ccc2N2CCCCC2)CC1	-0.7	11.4
COc1cccc(C2N=C(N)Nc3nc4ccccc4n32)c1OC (stereo not drawn)	-0.2	102.1
COCCN=c1scc(-c2ccccc2)n1/N=C1\CCc2ccccc21	3.8	3.0
COc1ccc2nc(-c3ccc(NC(=O)C(C)Oc4ccccc4F)cc3)cn2n1 (stereo not drawn)	1.7	0.2

Quoted from the entries so far, 2 compounds:
SMILES	NPYLR7 agonist	NPYLR7 agonist max-min
O=S(=O)(NCc1ccccc1)Nc1ccccc1N1CCOCC1	0.7	1.5
O=C(NCc1ccccc1F)c1ccc(NC(=O)c2cccs2)cc1	2.3	1.9

A few values from the results shown:
`O=C(NCc1ccccc1F)c1ccc(NC(=O)c2cccs2)cc1` in NPYLR7 agonist reads 2.3
`O=C(CSc1ncn[nH]1)Nc1nccs1` in NPYLR7 agonist max-min reads -1.3
`CN(CCNC(=O)c1cnc(-c2ccccc2)nc1)S(C)(=O)=O` in NPYLR7 agonist reads 1.5
`Nc1cc(-c2ccc(Cl)cc2)nn1-c1ccc(C(=O)NCCc2ccccn2)cc1` in NPYLR7 agonist reads -8.6

Continuation:
SMILES	NPYLR7 agonist	NPYLR7 agonist max-min
O=C1OCCN1C(=O)c1ccccc1	-7.4	-9.0
COc1ncc(-c2nccn2CCc2c[nH]c3ccccc23)cn1	12.7	7.3
Cc1c(Cl)cccc1NC(=O)N1CCN(C(=O)C(=O)N2CCCC2)CC1	7.0	3.8
CC1(C)Cc2c(c(N3CCOCC3)nc3sc4c(N(CCO)CCO)ncnc4c23)CO1	7.5	4.1
O=c1c2c3c(sc2ncn1N=Cc1ccc(O)cc1)CCCC3	-3.0	-6.7
COc1cc(-c2cc(C(=O)NCc3ccccc3C(F)(F)F)c3ccccc3n2)cc(OC)c1OC	4.2	2.4
O=C(c1ccc(C(F)(F)F)cc1)N1CCCC(OCc2cc(F)ccc2F)C1 (stereo not drawn)	-4.2	-1.9
Cc1nc2c(-c3ccccc3)c(C)nn2c(NCCN2CCOCC2)c1Cc1ccccc1	1.3	-3.6
O=C(NC1CCSc2ccc(F)cc21)C1CCCCC1 (stereo not drawn)	10.4	10.2
C=C(C)Cn1c(C(=O)N2CCN(C(=O)Nc3ccccc3OC)C(C)C2)cc2ccsc21 (stereo not drawn)	17.8	19.3
COc1ccc(C2CC(=O)c3ccc(OC)cc3O2)cc1 (stereo not drawn)	0.1	-4.6
CCOc1ccc2ccccc2c1C(=O)Nn1cnc2c(cnn2C(C)(C)C)c1=O	4.8	2.8
Cc1nc(C)c(Cc2ccccc2F)c(N2CCN(S(=O)(=O)c3ccc(F)cc3)CC2)n1	4.4	6.9
COc1ccc(C(=O)Nc2c(N)nc(SCC(=O)N3CCc4ccccc43)[nH]c2=O)cc1	-3.3	-3.1
Nc1nc(=S)c2[nH]cnc2[nH]1	-11.0&-2.6	-15.9&-7.6

Source: PubChem BioAssay
